Vaccinia stage: Vaccinia orthopox stage-specific inhibition; Vaccinia-infected cells, mCherry/Venus stage reporter fluorescence; active compounds read low; some inactives read as strong as hits; activity change (mCherry), % (no concentration beside the values); hit rate 0.01% among 89,000;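 active = mCherry past -33% and 40 or more points under the early reporter, replicates agreeing; inconclusive = past -33% without that gap or agreement; tested in A549 cells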;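 note: scaled between vehicle wells and reference inhibitor wells; 23 nL library stock went into each well; one replicate is shown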
Vaccinia stage Venus: also measured in Vaccinia stage; calls as there; activity change (Venus), %; measured here: Venus reporter, other viral stage;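 negative = less Venus signal; first of two replicates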
An asterisk follows results filed as active; ? = inconclusive; . = not tested or not shown.

SMILES	Vaccinia stage	Vaccinia stage Venus
O=C(NC1CCCC1)N1CC2(C1)[C@@H](c1ccccc1)[C@@H](CO)N2CC1CC1	-9.9	-3.3
Cc1ccccc1-c1ccc([C@H]2[C@H](CO)N3CCCCN(S(=O)(=O)Cc4ccccc4)C[C@@H]23)cc1	?	.
C[C@H](NC(=O)C[C@@H]1C[C@H]2c3cc(NC(=O)C4CCOCC4)ccc3O[C@H]2[C@H](CO)O1)c1ccccc1	-3.6	5.7
COc1ccc(NC(=O)N(C)C[C@@H]2OCCCC[C@@H](C)Oc3ccc(NC(=O)Nc4ccccc4)cc3C(=O)N([C@@H](C)CO)C[C@@H]2C)cc1	-5.7	-3.9
COCc1cn(CC[C@H]2CC[C@@H](NC(=O)CCN3CCCCC3)[C@@H](CO)O2)nn1	12.2	11.3
C[C@H](CO)N1C[C@H](C)[C@@H](CN(C)C(=O)Nc2ccccc2)OCCCC[C@H](C)Oc2ccc(NC(=O)c3ccncc3)cc2C1=O	27.9	13.4
C/C=C/c1ccc(C2[C@H]3CNC[C@@H]2N3S(C)(=O)=O)cc1 (stereo not given in full)	-8.2	-8.3
CO[C@H]1CC[C@H]2CCN(C)C(=O)[C@@H](C)N(C)C(=O)c3cc(C#N)ccc3OC[C@@H]1O2	2.4	0.4
Cc1noc(C)c1S(=O)(=O)N(C)C[C@H]1OCCCC[C@H](C)Oc2ccc(NC(=O)NC3CCCCC3)cc2C(=O)N([C@H](C)CO)C[C@@H]1C	-25.5	-19.3
COCC(=O)NC[C@@H]1N[C@@H](CO)[C@H]1c1ccc(C2=CCCCC2)cc1	-2.3	0.1
CC(C)NC(=O)Nc1ccc2c(c1)C(=O)N([C@H](C)CO)C[C@@H](C)[C@@H](CN(C)S(=O)(=O)c1ccc(F)cc1)O2	-4.3	2.3
N#C[C@@H]1[C@H](c2ccc(C#Cc3cccc(F)c3)cc2)[C@@H](CO)N1C(=O)C1CCCC1	-33.1	-27.6
COCC(=O)N1C[C@H](C)[C@H](OC)CN(C)C(=O)c2cc(NC(=O)c3ccc(F)cc3)ccc2OC[C@H]1C	7.5	3.7
CC(C)CC#Cc1ccc2c(c1)O[C@H](CN(C)S(=O)(=O)c1ccc(F)cc1)[C@H](C)CN([C@@H](C)CO)S2(=O)=O	?	.
C[C@@H]1CN([C@@H](C)CO)C(=O)c2cccc(NS(=O)(=O)c3cn(C)cn3)c2O[C@H]1CN(C)Cc1ccc2c(c1)OCO2	15.0	7.7
C[C@@H]1CN([C@H](C)CO)C(=O)c2cccc(NC(=O)Nc3ccccc3)c2O[C@@H]1CN(C)S(=O)(=O)c1ccc(F)cc1	-22.2	-19.0
CCCNC(=O)N(C)C[C@H]1Oc2cc(C#CC(C)(C)O)ccc2S(=O)(=O)N([C@H](C)CO)C[C@H]1C	13.4	14.1
C[C@@H]1CN([C@H](C)CO)C(=O)c2cc(-c3cccc(F)c3)cnc2O[C@H]1CN(C)Cc1cccnc1	0.9	-0.3
CNC[C@H]1Oc2c(NS(=O)(=O)c3cn(C)cn3)cccc2C(=O)N([C@@H](C)CO)C[C@@H]1C	10.8	5.4
COc1ccc(S(=O)(=O)N(C)C[C@H]2OCCCC[C@H](C)Oc3ccc(NC(=O)NC4CCCCC4)cc3C(=O)N([C@@H](C)CO)C[C@@H]2C)cc1	-27.7	-18.2

Brought forward from above: two entries; new compounds follow.
SMILES	Vaccinia stage	Vaccinia stage Venus
CNC[C@H]1Oc2c(NS(=O)(=O)c3cn(C)cn3)cccc2C(=O)N([C@@H](C)CO)C[C@@H]1C	10.8	5.4
COc1ccc(S(=O)(=O)N(C)C[C@H]2OCCCC[C@H](C)Oc3ccc(NC(=O)NC4CCCCC4)cc3C(=O)N([C@@H](C)CO)C[C@@H]2C)cc1	-27.7	-18.2
C[C@@H]1CN([C@@H](C)CO)C(=O)c2cccc(NC(=O)NC3CCCCC3)c2O[C@H]1CN(C)S(C)(=O)=O	8.8	4.8
COc1ccc(NC(=O)Nc2ccc3c(c2)C(=O)N([C@H](C)CO)C[C@H](C)[C@H](CN(C)C(=O)Cc2ccccc2)OCCCC[C@H](C)O3)cc1	-16.1	-14.6
COC(=O)[C@@H]1[C@@H](CO)[C@@H]2Cn3c(ccc(-c4cccnc4)c3=O)[C@H]1N2S(=O)(=O)c1ccccc1C	10.4	0.9
C[C@@H]1CN([C@@H](C)CO)C(=O)c2cccc(NC(=O)Nc3ccc4c(c3)OCO4)c2O[C@H]1CN(C)S(=O)(=O)c1cn(C)cn1	19.0	15.1
C[C@@H]1CCCCO[C@@H](CN(C)Cc2ccc(C(F)(F)F)cc2)[C@H](C)CN([C@H](C)CO)C(=O)c2cc(NC(=O)CCC(F)(F)F)ccc2O1	?	.
COCC#Cc1cnc2c(c1)C(=O)N([C@@H](C)CO)C[C@H](C)[C@@H](CN(C)C(=O)c1cccc(F)c1)O2	28.1	11.5
CCCNC(=O)C[C@H]1CC[C@@H]2[C@H](COC[C@H](O)CN2C(=O)Nc2cccc(Cl)c2)O1	6.5	7.6
COc1ccc(CNC(=O)C[C@@H]2C=C[C@H](NS(=O)(=O)c3cccc(OC)c3)[C@@H](CO)O2)cc1	10.7	-4.0
CNC[C@@H]1OCCCC[C@H](C)Oc2ccc(NC(=O)c3ccccc3)cc2C(=O)N([C@H](C)CO)C[C@@H]1C	7.3	11.3
O=C(C[C@H]1CC[C@@H]2[C@H](COC[C@@H](O)CN2C(=O)c2ccncc2)O1)Nc1ccc(-c2ccccc2)cc1	-11.6	-0.9
COC(=O)CCCCCCC(=O)Nc1ccc(C2OC(CSc3ccccn3)CC(c3ccccc3)O2)cc1 (stereo not given)	14.9	7.7
O=C1CNC[C@@H]2[C@@H](c3ccc(C#CC4CCCC4)cc3)[C@H](CO)N12	1.7	3.5
CO[C@@H]1CN(C)C(=O)c2cc(NC(=O)Nc3ccccc3F)ccc2OC[C@@H](C)N(Cc2ccccc2C(=O)O)C[C@H]1C	-6.5	-10.0
C[C@@H]1CN([C@H](C)CO)C(=O)Cc2cc(NS(=O)(=O)c3ccc(F)cc3)ccc2O[C@@H]1CN(C)CC1CC1	4.0	-6.6
O=C(C[C@@H]1CC[C@H]2[C@@H](COC[C@@H](O)CN2Cc2cccc(C(F)(F)F)c2)O1)NCCc1ccccc1	-33.4	-39.6
CNC[C@@H]1Oc2ccc(NC(=O)CCCN(C)C)cc2C(=O)N([C@@H](C)CO)C[C@@H]1C	0.6	10.7
C[C@@H]1CN([C@@H](C)CO)C(=O)Cc2cc(NC(=O)Nc3ccccc3)ccc2O[C@H]1CN(C)C(=O)Nc1cccc2ccccc12	32.5	21.8
O=C1CN(S(=O)(=O)c2ccccc2)C[C@@H]2[C@H](c3ccc(C4=CCCC4)cc3)[C@@H](CO)N12	4.6	4.4
COc1ccc(-c2ccc([C@@H]3[C@H]4CN(C(=O)Cc5ccncc5)CCCCN4[C@H]3CO)cc2)cc1	-13.8	-13.0
COCC#Cc1ccc2c(c1)O[C@@H](CN(C)Cc1cccnc1)[C@H](C)CN([C@H](C)CO)S2(=O)=O	4.9	-7.1
C[C@@H]1CN([C@@H](C)CO)C(=O)c2cc(C3=CCCC3)cnc2O[C@H]1CN(C)C(=O)Nc1ccc(F)cc1	16.4	5.9
CCCNC(=O)N1C[C@H](O)COC[C@H]2O[C@H](CC(=O)N3CCC(Cc4ccccc4)CC3)CC[C@@H]21	3.6	0.3
C[C@H]1CN([C@@H](C)CO)C(=O)c2cc(NC(=O)Nc3ccc4c(c3)OCO4)ccc2O[C@@H]1CN(C)Cc1ccc(-c2ccccc2)cc1	-19.7	-9.3
CC(C)CC#Cc1ccc2c(c1)O[C@@H](CN(C)Cc1cccnc1)[C@@H](C)CN([C@@H](C)CO)S2(=O)=O	?	.
C[C@H](CO)N1C[C@H](C)[C@H](CN(C)Cc2ccc(Oc3ccccc3)cc2)Oc2c(NC(=O)Nc3cccc4ccccc34)cccc2C1=O	-0.9	0.0
CC(C)C#Cc1ccc2c(c1)O[C@H](CN(C)C(=O)c1cccc(F)c1)[C@@H](C)CN([C@H](C)CO)S2(=O)=O	?	.
CO[C@@H]1CN(C)C(=O)c2cc(NS(=O)(=O)c3ccccc3)ccc2OC[C@H](C)NC[C@H]1C	14.1	8.8
C[C@H](CO)N1C[C@H](C)[C@H](CN(C)Cc2ccccc2)Oc2cc(C#Cc3ccccn3)ccc2S1(=O)=O	4.5	0.0
C[C@@H]1CN([C@@H](C)CO)C(=O)Cc2cc(NC(=O)NC3CCCCC3)ccc2O[C@@H]1CN(C)S(C)(=O)=O	16.2	17.5
C[C@@H]1CCCCO[C@@H](CN(C)C(=O)NC2CCCCC2)[C@@H](C)CN([C@H](C)CO)C(=O)c2cc(NC(=O)Nc3ccccc3)ccc2O1	15.3	10.7
C[C@H](CO)N1C[C@H](C)[C@H](CN(C)S(=O)(=O)c2ccc(Cl)cc2)Oc2ccc(NC(=O)Cn3cnnn3)cc2C1=O	2.7	6.7
C[C@@H]1CN([C@H](C)CO)C(=O)c2cc(C#CCN(C)C)cnc2O[C@H]1CN(C)C(=O)c1cccc(F)c1	16.9	1.5
COc1ccccc1-c1ccc2c(c1)O[C@H](CN(C)S(=O)(=O)c1ccc(C)cc1)[C@@H](C)CN([C@@H](C)CO)S2(=O)=O	-20.0	-12.6
O=C(NCC[C@H]1CC[C@H](NC(=O)c2cnccn2)[C@H](CO)O1)c1ccc2c(c1)OCO2	3.5	3.4
COc1ccc2c3c([nH]c2c1)[C@H](CO)N(C(=O)C1CCC1)CC31CN(Cc2nccs2)C1	4.6	1.8
OC[C@H]1[C@@H]2c3ccccc3NC[C@@H]2N1Cc1cccnc1	-5.7	-1.6
C[C@H](CO)N1C[C@H](C)[C@@H](CN(C)Cc2ccc(-c3ccccc3)cc2)Oc2c(NC(=O)Nc3ccc(C(F)(F)F)cc3)cccc2C1=O	-4.4	-5.5
C[C@@H]1CCCCO[C@H](CN(C)C(=O)CCC(F)(F)F)[C@H](C)CN([C@@H](C)CO)C(=O)c2cc(NC(=O)CCC(F)(F)F)ccc2O1	-5.8	1.4
CNC[C@@H]1OCCCC[C@@H](C)Oc2ccc(NS(=O)(=O)c3ccccc3)cc2C(=O)N([C@H](C)CO)C[C@H]1C	-1.9	12.0
CN1C(=O)c2cc(NC(=O)Cc3cccs3)ccc2OC[C@@H]2O[C@@H](CC(=O)NCC3CC3)CC[C@H]21	2.9	4.8
CO[C@@H]1CN(C)C(=O)c2ccc(NC(=O)NC(C)C)cc2OC[C@@H](C)N(Cc2ccccn2)C[C@H]1C	4.5	3.6
C[C@@H]1CN([C@@H](C)CO)C(=O)c2ccccc2-c2ccccc2CO[C@@H]1CN(C)S(=O)(=O)c1ccc([N+](=O)[O-])cc1	-8.9	-2.3
C[C@@H]1CN([C@H](C)CO)C(=O)c2cc(-c3ccncc3)cnc2O[C@H]1CN(C)C(=O)c1ccc(F)cc1	22.2	9.2
O=C(Nc1ccc(Cl)cc1)N[C@@H]1CC[C@@H](CCNC(=O)c2ccccc2F)O[C@H]1CO	-16.4	-3.2
CCC(=O)Nc1ccc2c(c1)OC[C@H](C)N(C(=O)c1ccc(F)cc1)C[C@@H](C)[C@H](OC)CN(C)C2=O	14.6	6.3
C[C@@H]1CCCCO[C@H](CN(C)CC2CC2)[C@H](C)CN([C@@H](C)CO)C(=O)c2cc(NS(=O)(=O)c3cn(C)cn3)ccc2O1	20.8	8.3
COc1ccc2c3c(n(C)c2c1)[C@H](CO)NCC31CN(S(=O)(=O)c2ccccc2)C1	-12.3	-15.5
C[C@@H]1CN([C@H](C)CO)C(=O)CCCn2nncc2CO[C@@H]1CN(C)C(=O)c1ccc2ccn(C)c2c1	10.4	7.6
Cc1ccccc1S(=O)(=O)NCC[C@H]1CC[C@H](NC(=O)C2CCOCC2)[C@H](CO)O1	-1.7	6.1
C[C@H](CO)N1C[C@H](C)[C@H](CN(C)C(=O)C2CC2)OCc2cn(nn2)CCCC1=O	2.6	-1.3
CCN(C[C@@H]1N[C@H](CO)[C@H]1c1ccc(-c2ccccc2)cc1)C(=O)COC	0.9	5.0
O=C(NCc1ccc2c(c1)OCO2)[C@H]1[C@H](CO)[C@H]2Cn3c(cccc3=O)[C@@H]1N2Cc1ccncc1	7.3	12.6
C[C@H]1CN([C@@H](C)CO)C(=O)Cc2cc(NS(=O)(=O)c3cn(C)cn3)ccc2O[C@@H]1CN(C)CC1CCCCC1	2.4	-2.4
CC(C)NC(=O)Nc1ccc2c(c1)C(=O)N([C@@H](C)CO)C[C@@H](C)[C@@H](CN(C)S(=O)(=O)c1ccccc1)OCCCC[C@@H](C)O2	8.7	7.8
CCNC(=O)C[C@H]1CC[C@H]2[C@H](COc3ccc(NC(C)=O)cc3C(=O)N2C)O1	4.1	7.2
Cc1ccc(S(=O)(=O)NCC[C@@H]2CC[C@@H](NC(=O)CCN3CCCCC3)[C@@H](CO)O2)cc1	18.4	12.7
C[C@@H]1CN([C@@H](C)CO)S(=O)(=O)c2ccc(-c3ccc(F)cc3)cc2O[C@H]1CN(C)C(=O)C1CCCCC1	?	.
CO[C@H]1CC[C@@H]2CCOc3ccc(C#N)cc3C(=O)N(C)C[C@H](C)C(=O)N(C)C[C@H]1O2	7.1	1.0
O=C(N[C@H]1CC[C@H](CCn2cc(C3(O)CCCC3)nn2)O[C@H]1CO)C1CCCCC1	-5.8	-2.4

3 records picked at random from the list so far, as already listed:
SMILES	Vaccinia stage	Vaccinia stage Venus
CCN(C[C@@H]1N[C@H](CO)[C@H]1c1ccc(-c2ccccc2)cc1)C(=O)COC	0.9	5.0
C[C@H](CO)N1C[C@H](C)[C@H](CN(C)C(=O)C2CC2)OCc2cn(nn2)CCCC1=O	2.6	-1.3
C[C@@H]1CCCCO[C@H](CN(C)CC2CC2)[C@H](C)CN([C@@H](C)CO)C(=O)c2cc(NS(=O)(=O)c3cn(C)cn3)ccc2O1	20.8	8.3

Copied from the list.
Cc1ccc(S(=O)(=O)NCC[C@@H]2CC[C@@H](NC(=O)CCN3CCCCC3)[C@@H](CO)O2)cc1 @ Vaccinia stage Venus: 12.7
O=C(Nc1ccc(Cl)cc1)N[C@@H]1CC[C@@H](CCNC(=O)c2ccccc2F)O[C@H]1CO @ Vaccinia stage Venus: -3.2

Source: PubChem BioAssay

An excerpt. The share of hits here may be higher or lower than overall.
